# Sa ugtP lethal = growth inhibition of ugtP-null S. aureus, primary screen, RN4220 ugtP deletion, OD600 | 16 h; some inactives read as strong as hits | growth inhibition, % (no concentration beside the values) | 0.54% of 330,000 active | AID 1259309, 2017;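 active = z-score under -3 and OD600 up to 0.15 on both plates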;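 also: plate controls were untreated wells for no effect and antibiotic for full effect; wells of about 80 µL received 100 nL stock; the first replicate is given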
# Mtb hypoxia inh = PubChem AID 1159583; fluorescence inhibition, % (test concentration not listed); 0.1% of 300,000 active; M. tuberculosis hypoxia-regulated fluorescent reporter, fluorescence;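 active = 35 to 45% if threefold the growth effect, above 45% if 1.5-fold the growth effect; inactive = the rest, general growth blockers included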;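 also: wells of about 50 µL received 100 nL stock; 0% = vehicle wells and 100% = reference inhibitor wells; whole bacteria with a GFP reporter of the hypoxia response; strong numbers were not always called active; many hits fall short of the cut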
# Sa RN4220 lethal = growth inhibition of S. aureus RN4220, primary screen, OD600. 16 h. inhibition, % (test concentration not listed). 0.33% of 330,000 active;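 active = z-score of -3 or lower and OD600 up to 0.18 on both plates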;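 also: plate controls were untreated cells for no effect and reference antibiotic for full effect; stock transfer was 100 nL into about 80 µL; one replicate is shown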
# BJeLR lethal = MLPCN primary cell-based screen for lethality selective to Ras in HRASV12 cells; BJeLR (HRASV12) viability, CellTiter-Glo ATP luminescence, 48 h; reference of the scale not given here; inhibition, % (no concentration beside the values); 0.17% of 300,000 active;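 active = replicate mean above 50%; inconclusive = above 50% but judged a plate artefact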;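 also: 50 nL library stock added to about 25 µL; numbers are from one replicate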
# PrP UTR inh = inhibition of PrP 5' UTR reporter expression; inhibition, % (no concentration beside the values); AID 488862, 2010; cell-based PrP 5' UTR mRNA reporter, plate reader; 0.35% of 340,000 active;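 active = every replicate at 50% or more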;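 also: 0 = median of the neutral control wells; tested in H4 reporter cells; numbers are from one replicate; inactives centre near -14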
# Autofluor counter = compound fluorescence in toxin protease inhibitor counterscreen; compound autofluorescence counterscreen, microsphere flow cytometry; stronger effect = higher value; fluorescence intensity (test concentration not listed); 3.1% of 360,000 active;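 active = at least 3 SD above the mean of all compounds, about 16000 in these data; inconclusive = too few beads counted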;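 also: 100 nL of 1 mM stock went into each well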
# Mtb hypoxia inh growth = recorded beside Mtb hypoxia inh, whose call it bears; growth inhibition, %; measured here: M. tuberculosis growth (absorbance);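 0% = vehicle and 100% = reference antibiotic; read after six days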
# * = called active by the depositor; ? = inconclusive; . = not tested or not shown.
SMILES,Sa ugtP lethal,Mtb hypoxia inh,Mtb hypoxia inh growth,Sa RN4220 lethal,BJeLR lethal,PrP UTR inh,Autofluor counter
O=C(Cn1cnc2scc(-c3ccccc3)c2c1=O)NCc1ccco1,5,8,4,3.1,1,-20,2215
CCCCCN(C(=O)NC(=O)Nn1cnnc1)S(C)(=O)=O,0,12,2,-1.7,-6,-8,7375
O=C(CSc1nnc(-c2ccncc2)o1)Nc1ccc(F)c(F)c1,8,-3,-6,3.1,.,-19,4831
COc1ccc(C)cc1NC(=O)C1CC(=O)N(CCc2ccccc2)C1 (configuration not stated),2,-3,-4,-0.5,-27,-1,4153
N#Cc1c(=O)c2nc(NCc3ccccc3)ncc2n2ccccc12,-2,-12,-3,-0.1,-3,-18,23674*
Cc1ccc2nc(C(=O)N3CCCC(Nc4ccc(F)cc4)C3)cn2c1 (configuration not stated),-2,2,3,2.5,-6,-3,6123
COC(=O)c1ccc(N)cc1O,5,.,.,0.9,3,-7,3576
Cc1ccccc1-c1ccc(=O)n(CC(=O)Nc2ccc(N3CCOCC3)cc2)n1,3,6,14,2.5,-4,-3,20524*
NC(=O)NCCCC(NC(=O)c1ccc(C#CC2(O)CCCCC2)cc1)C(=O)O (configuration not stated),4,-9,-12,1.8,.,-16,5058
NC(=O)c1ccsc1NC(=O)COC(=O)/C=C/c1ccccc1[N+](=O)[O-],-11,5,1,-0.8,.,-24,3312
Cc1cc(C)nc(NC(=O)Cc2ccc(Br)cc2)n1,6,6,3,6.7,-12,-10,4369
CC(=O)Nc1nc(C)nc(C)c1C(C)=O,-2,.,.,1.9,2,-13,2339
O=c1[nH]c(CN2CCOCC2)nc2ccccc12,5,2,0,3.4,3,-31,2509
COc1cc(NC(=O)c2cccnc2Sc2ccc(Cl)cc2)cc(OC)c1OC,11,7,7,1.0,-23,-3,2090
COc1ccc(C(=O)COc2ccc(F)cc2)c(O)c1C,3,2,0,4.6,1,-19,4699
Cc1nn(-c2ccccc2)c(N)c1N=Nc1cccnc1,23,9,0,7.0,4,-70,2015
CC(=O)c1sc(NC(=O)c2oc3ccc(F)cc3c2C)nc1C,0,9,3,6.6,.,-91,2847
Nc1ncc2c(n1)-c1ccccc1CC2,11,3,4,5.5,-4,-15,4572
O=C(COC(=O)CCc1nc2ccccc2c(=O)[nH]1)Nc1ccc2c(c1)OCO2,-3,-6,3,-0.9,-3,-15,4298
CNC(=O)c1ccc(Nc2nnc(-c3ccc(C)c(S(N)(=O)=O)c3)c3ccccc23)cc1,13,-13,5,2.6,-8,.,3999
CS(=O)(=O)c1ccc(C(O)C(CF)NC(=O)C(Cl)Cl)cc1 (configuration not stated),100*,.,.,99*,.,.,.
O=C(CCSCCc1ccccn1)Nc1cccc([N+](=O)[O-])c1,3,4,-3,7.8,-2,1,1959
O=C(Nc1cccc(C(=O)NC2CC2)c1)c1ccc(F)c(S(=O)(=O)N2CCOCC2)c1,0,4,7,3.1,.,-18,6038
CN(C)CCNc1ncnc2ccccc12,-7,4,10,6.3,2,-13,9651
CCCn1c(=N)c(S(=O)(=O)c2ccccc2)cc2c(=O)n3cccc(C)c3nc21,8,-7,-7,5.9,-3,-17,5350
CCc1ccc(NC(=S)NCc2cccnc2)cc1,13,18,5,3.4,6,-39,4114
CC(C)(CO)NCc1ccccc1OCC(=O)Nc1ccccc1,5,13,0,5.1,-6,-16,6667
CCn1ccnc1CNC(=O)c1ccc2oc(CCCc3ccccc3)nc2c1,-7,-6,1,-3.2,-7,-18,6480
Cc1c(C(=O)N2CCC(Cc3ccccc3)CC2)sc2ncnc(N3CCC(C)CC3)c12,-20,4,2,2.0,0,-8,2638
CCN(CC)CCN1C(=O)C(=O)/C(=C(/O)c2ccccc2)C1c1ccccc1F (configuration not stated),.,.,.,.,4,-13,2639
Cc1ccc(S(=O)(=O)N2CCOCC2)cc1NC(=O)COC(=O)c1cc(=O)c2ccccc2o1,0,5,-1,5.2,0,-9,2589
CCN(CC)CCN1C(=O)c2ccccc2NC1c1cc(OC)c(OC)c(OC)c1 (configuration not stated),0,10,2,-1.6,0,-19,9041
CC(C)c1ccc(NC(=O)C2CCCCC2C(=O)O)cc1 (configuration not stated),.,.,.,.,-9,-5,14906
CCOC(=O)C1=CN(Cc2ccco2)S(=O)(=O)N(C)C1c1ccccc1 (configuration not stated),1,2,6,4.7,.,-11,4052
C=CCNc1nc(C(=O)OCC(=O)c2ccc(F)cc2)cs1,5,-8,-4,3.0,-4,-30,4324
Nc1nnc(SCC(=O)NNC(=O)c2ccc(F)cc2)s1,14,5,3,6.7,.,-26,5287
O=C(OCC(=O)N1CCN(C(=O)c2ccco2)CC1)c1ccccc1NCCO,1,-1,0,-2.7,5,-26,4940
O=C(NCCS(=O)(=O)N1CCN(c2ccccc2)CC1)c1cccc(F)c1,10,1,1,5.7,-4,-12,?
CCOC(=O)C1CCCN(S(=O)(=O)c2cc3c(cc2Cl)NC(=O)CO3)C1 (configuration not stated),-11,.,.,1.6,0,-19,5306
CCOC(=O)c1c(NC(=O)CSc2ncn[nH]2)sc(C(=O)N(C)C)c1C,16,13,-6,5.9,-2,-18,?
CC(C)N(C(=O)CSc1nnc(NC(=O)Cc2cccs2)s1)C(C)C,0,16,-2,2.7,0,-30,3637
C=CCNC(=S)NN=C(C)c1ccccn1,-4,15,19,-10,.,.,.
O=C(Nc1ccc(S(=O)(=O)Nc2nccs2)cc1)c1cccc(S(=O)(=O)N2CCOCC2)c1,4,21,15,12,1,-10,4459
Cc1onc(-c2c(F)cccc2Cl)c1-c1nnc(-c2cccc3ccccc23)o1,7,10,3,5.1,5,.,.
CC12CN(C(=O)c3ccc(Cl)cc3)C3(C#N)CC1CCC23C (configuration not stated),3,10,13,1.1,-15,-13,22214*
CCOC(=O)Cn1c(CN2CCOCC2)nc2c1c(=O)n(C)c(=O)n2C,6,3,2,-9.8,-1,-34,7188
S=C(NCCc1ccc(Cl)cc1)NC1CCCC1,-3,-4,16,3.7,-4,-38,2769
CCOC(=O)C1CCN(C(=O)CSc2ccc(Cl)cc2)CC1,1,.,.,0.4,-1,-9,3832
CC(=O)N1CCc2cc3nc(C)cc(C)c3cc21,2,.,.,2.2,2,-3,2700
Cc1ncccc1C(=O)N1CCCC(CCC(=O)N2CCN(c3ccccn3)CC2)C1 (configuration not stated),12,6,3,2.8,4,-23,5680
O=C(CN1C(=O)CSc2ccc(S(=O)(=O)N3CCOCC3)cc21)N1CCCCC1,2,7,-4,1.7,-7,-1,6122
CC(OC(=O)C1CCN(S(=O)(=O)c2ccc(C(C)(C)C)cc2)CC1)C(=O)N1CCOCC1 (configuration not stated),.,.,.,.,-7,-22,6976
CC1=NN(C(=S)Nc2ccccc2)C(C)(C)C1,-4,9,-2,8.3,3,-20,3785
O=C(O)c1ccc(NN=Cc2ccc(-c3cc(Cl)ccc3Cl)o2)cc1,19,2,-1,48,.,.,.
O=C(NC1CCC(O)CC1)c1cc(Cl)c2c(c1)OCCO2 (configuration not stated),3,-4,4,0.4,.,-16,3457
CC(C(=O)NCc1ccc(Cl)cc1)n1cccc1C(=O)c1ccccc1 (configuration not stated),-3,4,0,-1.3,0,-26,4790
O=C(COC(=O)CNS(=O)(=O)c1ccccc1)Nc1ccc(Cl)cn1,-3,6,3,-5.9,-7,-9,3670
Cc1cc(C)cc(NC(=S)N2CCN(c3ncc(C(F)(F)F)cc3Cl)CC2)c1,7,5,9,-0.1,8,-1,4153
CCOC(=O)C1CCCCN1Cc1ccc(F)cc1 (configuration not stated),3,12,7,7.0,-14,-2,7719
O=C1CC(c2ccc(S(=O)(=O)NCc3ccccc3)cc2)CN1 (configuration not stated),11,.,.,2.1,-3,-22,4640

# Only Mtb hypoxia inh growth and BJeLR lethal, for two of the compounds above:
molecule	Mtb hypoxia inh growth	BJeLR lethal
O=C1CC(c2ccc(S(=O)(=O)NCc3ccccc3)cc2)CN1 (configuration not stated)	.	-3
Cc1ncccc1C(=O)N1CCCC(CCC(=O)N2CCN(c3ccccn3)CC2)C1 (configuration not stated)	3	4

# (further entries)
SMILES,Sa ugtP lethal,Mtb hypoxia inh,Mtb hypoxia inh growth,Sa RN4220 lethal,BJeLR lethal,PrP UTR inh,Autofluor counter
CCCCn1nnnc1NCc1cccs1,10,18,16,3.3,4,-11,19115*
Cc1ccc(NC(=O)C2CC(=O)N(Cc3ccccc3)C2)nc1 (configuration not stated),.,.,.,.,-2,0,4665
Cc1ccc(/C=N/Nc2nc(C(C)(C)C)cs2)o1,.,.,.,.,-1,-61,2153
O=C(/C(=C/O)N=Nc1ccccc1)c1ccncc1,0,.,.,1.6,0,2,2694
O=C(c1ccc([N+](=O)[O-])cc1)N1CCSC1c1ccccc1 (configuration not stated),2,3,7,3.5,-6,-11,2618
CCOC(=O)Cc1csc(NC(=O)/C=C/c2ccc(OC)cc2)n1,15,1,8,8.4,10,-61,4387
CCCCNC(=O)CSc1nc2ccsc2c(=O)n1C1CCN(C(=O)OCC)CC1,7,-5,-6,2.2,0,-34,10790

# Compounds from the list above that have a Cl atom (twelve):
SMILES,Sa ugtP lethal,Mtb hypoxia inh,Mtb hypoxia inh growth,Sa RN4220 lethal,BJeLR lethal,PrP UTR inh,Autofluor counter
COc1cc(NC(=O)c2cccnc2Sc2ccc(Cl)cc2)cc(OC)c1OC,11,7,7,1.0,-23,-3,2090
CS(=O)(=O)c1ccc(C(O)C(CF)NC(=O)C(Cl)Cl)cc1 (configuration not stated),100*,.,.,99*,.,.,.
CCOC(=O)C1CCCN(S(=O)(=O)c2cc3c(cc2Cl)NC(=O)CO3)C1 (configuration not stated),-11,.,.,1.6,0,-19,5306
Cc1onc(-c2c(F)cccc2Cl)c1-c1nnc(-c2cccc3ccccc23)o1,7,10,3,5.1,5,.,.
CC12CN(C(=O)c3ccc(Cl)cc3)C3(C#N)CC1CCC23C (configuration not stated),3,10,13,1.1,-15,-13,22214*
S=C(NCCc1ccc(Cl)cc1)NC1CCCC1,-3,-4,16,3.7,-4,-38,2769
CCOC(=O)C1CCN(C(=O)CSc2ccc(Cl)cc2)CC1,1,.,.,0.4,-1,-9,3832
O=C(O)c1ccc(NN=Cc2ccc(-c3cc(Cl)ccc3Cl)o2)cc1,19,2,-1,48,.,.,.
O=C(NC1CCC(O)CC1)c1cc(Cl)c2c(c1)OCCO2 (configuration not stated),3,-4,4,0.4,.,-16,3457
CC(C(=O)NCc1ccc(Cl)cc1)n1cccc1C(=O)c1ccccc1 (configuration not stated),-3,4,0,-1.3,0,-26,4790
O=C(COC(=O)CNS(=O)(=O)c1ccccc1)Nc1ccc(Cl)cn1,-3,6,3,-5.9,-7,-9,3670
Cc1cc(C)cc(NC(=S)N2CCN(c3ncc(C(F)(F)F)cc3Cl)CC2)c1,7,5,9,-0.1,8,-1,4153
